NPYLR7 agonist: mosquito NPYLR7 agonism. HEK293T NPYLR7/Galpha15, GCaMP6s calcium fluorescence. activation, % at 10 µM. 270,000 tested, 0.15% active; in the data active = activation above about 40%;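 also: 0% = vehicle and 100% = reference agonist at the receptor; some compounds past the cut are filed as inactive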
NPYLR7 agonist max-min: second read-out of NPYLR7 agonist, no call of its own (marks repeat the call); activation, %; measured here: Max-Min RFU normalised activation; some inactives read as strong as hits;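 span of the calcium signal over five minutes; 0% = vehicle and 100% = native peptide agonist; compound fluorescence can raise it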
* hit, by the source's call; & = joins results of further samples. An excerpt, so the mix of outcomes need not match the whole.

SMILES	NPYLR7 agonist	NPYLR7 agonist max-min
COc1ccc(OC)c(C2SCC(=O)N2CCO)c1 (stereo not drawn)	1	-4
Cc1cnc(NC(=O)NCC2CCCC(CNC(=O)Nc3ncc(C)s3)C2)s1 (stereo not drawn)	-1	-4
COc1ccc(S(=O)(=O)N2CCCC2)cc1N(C)S(C)(=O)=O	13	11
O=S(=O)(Nc1cc(F)ccc1F)c1ccc(Cl)cc1	2	1
CCOC(=O)c1c(C)[nH]c(C(=O)n2nc(N3CCCCC3)nc2N)c1C	1	6
Cc1cc(C)c(S(=O)(=O)N(CC(=O)N2CCc3sccc3C2c2ccc(F)cc2)C2CC2)c(C)c1 (stereo not drawn)	19	15
Cc1nc(-n2nnc3ccccc32)c2c3c(sc2n1)CCC3	-1	9
O=C(Cc1c(Cl)cccc1Cl)N(Cc1nc2ccccc2c(=O)[nH]1)CC1CCCO1 (stereo not drawn)	0	3
CC(NS(=O)(=O)Cc1ccc(C#N)cc1)c1ccco1 (stereo not drawn)	11	8
c1ccc(-c2ccc3nc(-c4ccccc4)c(CN4CCNCC4)n3c2)cc1	15	7
Cc1nc(SCc2ccccc2)c(C#N)c(C)c1C	4	4
COc1ccc(CN(Cc2nc(C(=O)Nc3ccc(F)cc3)co2)C(C)C)cc1	12	13
O=C(Nc1cccc(C(F)(F)F)c1)N1CCSC1c1ccc(Cl)cc1Cl (stereo not drawn)	0	2
COc1ccc(C(=O)N(CCCn2ccnc2)c2nc3c(C)c(C)ccc3s2)cc1OC	-10	-18
COc1ccccc1OCc1nc(CN(C(=O)c2ccc(F)cc2)C(C)C)cs1	22	32
CN(C(=O)CNC(=O)c1ccc(C(C)(C)C)cc1)c1ccc(O)cc1	9	5
Cc1nn(-c2ccccc2)c(C)c1/C=C/C(=O)NC(C)(C#N)C(C)C (stereo not drawn)	1	8
CCc1nc2ccc(C(=O)NCCc3ccccn3)cn2c1N(CC)CCOC	-6	-8
CC(OC(=O)CNC(=O)c1ccc(C(C)(C)C)cc1)C(=O)N1CCCC1 (stereo not drawn)	5	4
COc1ccc(OC)c(-c2cnc(-c3cccc(CNC(=O)Cc4cccs4)c3)[nH]2)c1	13	26

Arranged by count of non-hydrogen atoms (smallest number first): part of the list above
SMILES	NPYLR7 agonist	NPYLR7 agonist max-min
COc1ccc(OC)c(C2SCC(=O)N2CCO)c1 (stereo not drawn)	1	-4
CC(NS(=O)(=O)Cc1ccc(C#N)cc1)c1ccco1 (stereo not drawn)	11	8
COc1ccc(S(=O)(=O)N2CCCC2)cc1N(C)S(C)(=O)=O	13	11
CCOC(=O)c1c(C)[nH]c(C(=O)n2nc(N3CCCCC3)nc2N)c1C	1	6
Cc1cnc(NC(=O)NCC2CCCC(CNC(=O)Nc3ncc(C)s3)C2)s1 (stereo not drawn)	-1	-4
COc1ccc(CN(Cc2nc(C(=O)Nc3ccc(F)cc3)co2)C(C)C)cc1	12	13

Next section.
SMILES	NPYLR7 agonist	NPYLR7 agonist max-min
COCCn1c(=O)c2c(nc3n2CC(C)CN3c2cccc(Cl)c2)n(C)c1=O (stereo not drawn)	2	0
O=C1CC(c2ccccc2)CC2=Nc3ccccc3NC(c3ccc(Cl)cc3Cl)C12 (stereo not drawn)	-9	-12
CCC(CC(=O)Nc1ncc(C(N)=O)cc1Cl)C(C)C (stereo not drawn)	-4	-6
CCN1C(=O)N(CCCc2cccnc2)C(=O)C12CCN(Cc1cn(C)c3ccccc13)CC2	16	3
CN(C)CCN(C(=O)CCS(=O)(=O)c1ccccc1)c1nc2c(F)cc(F)cc2s1	-6	-11
CCOC(=O)C1CCN(C(=O)CCCCSc2nnc(Cc3ccccc3)n2-c2ccc(Cl)c(Cl)c2)CC1	5	16
O=C(NC1CC1)c1cc2n(n1)CCCN(C(=O)Cc1c[nH]c3ccccc13)C2	22	10
Cc1nn(C)c(C)c1S(=O)(=O)N1CCCC(C(=O)c2ccc3c(c2)OCO3)C1 (stereo not drawn)	1	1
CCC(C)N(Cc1ccc(N(CC)CC)cc1OS(=O)(=O)c1ccc(NC(C)=O)cc1)C(=O)C(C)C (stereo not drawn)	31	25
COc1ccccc1-n1c(CNC(=O)c2ccc(S(=O)(=O)N(C)C)cc2)nnc1SCC(=O)Nc1ccccc1F	-11	-9
O=C1OC(c2ccc(N3CCCC3=O)cc2)=NC1=Cc1cccs1	8	10
N#CC(NC(=O)c1nn(-c2ccccc2F)c2c1CCC2)C1CC1 (stereo not drawn)	2	-1
CCOC(=O)CN(C(=O)COc1ccccc1)[C@@H]1C[C@@H]2CO[C@H](c3ccccc3)C[C@@H]2C1	31	35
Cc1ccc(NC(=O)c2cccn(OCc3ccccc3F)c2=O)cc1	4	1
Cc1ccc(F)c(Cn2cc(C3CC=CCC3)nn2)c1F (stereo not drawn)	3	0
COc1ccc(C2=NNC(=Nc3ccccc3OC)SC2)cc1	19	19
CC(C)Cc1csc2nc(Cc3cccs3)[nH]c(=O)c12	6	3
Cc1ccc(/C=C/C(=O)NCCN2CCCS2(=O)=O)o1	-5	-5
CCOc1ncccc1CN1CCC(C(=O)NC23CC4CC(CC(C4)C2)C3)CC1	-18	-23
CC(NC(=O)c1ccco1)C(=O)N1CCCCC1C1OCCO1 (stereo not drawn)	6	2
Cc1ccc2nc(C)c(Cl)c(=O)n2c1	0	7
Cc1cc(C)c2c(c1C(=O)NC1CCOC1=O)CC(C)(C)C2=O (stereo not drawn)	1	2
Cc1c(C(=O)NCc2ccc3c(c2)OCCO3)sc(=O)n1Cc1ccc2c(c1)OCO2	-3	-4
COc1cccc(N2C(=N)C(c3ccc(Cl)cc3)C(=O)C2C)c1 (stereo not drawn)	4&-2	10&-3
COc1ccc(C(=O)N2CCN(c3ncnc4c3nnn4Cc3ccccc3)CC2)cc1	-5	-10
Nc1ccc(Oc2ccc(Oc3ccc(N)cc3)cc2)cc1	-2	-3
CCOc1ccccc1NC(=O)c1c(NC(=O)c2ccccc2Cl)sc2c1CCC(C)C2 (stereo not drawn)	4	7
CCn1cc(CNC(=O)C2(c3cccs3)CC2(C)C)cn1 (stereo not drawn)	12	8
Cc1ccc(C(=O)N2CCSC2c2ccccc2F)cc1 (stereo not drawn)	12	21
COc1ccc(OC)c(Nc2nc(NCC3CCCO3)nc3c2cnn3-c2ccccc2)c1 (stereo not drawn)	2	2
CC1CCCN1C(=O)c1cc(N2CCN(c3cccc(C(F)(F)F)c3)CC2)nc2ccccc12 (stereo not drawn)	3	2
CCc1ncc(C(=O)N2CCc3[nH]c4ccc(OC)cc4c3C2)cn1	2	3
Cc1ccc(C(=O)N2N=C(c3ccccc3)CC2c2ccc(N(C)C)cc2)cc1 (stereo not drawn)	-10	-15
O=C1NC2(CCN(C(=O)COCc3ccccc3)CC2)Nc2cc(F)c(F)cc21	2	4
CCOC(=O)Cc1c(C)nc2ncnn2c1N1CCC(C(=O)OCC)CC1	23	8
Cc1cccc2c1NC1(CCN(S(=O)(=O)c3cc(Cl)ccc3Cl)CC1)NC2=O	-1	11
O=C(C1CCC(=O)N(C2CCCCCC2)C1)N1CCC2(C=Cc3ccccc32)CC1 (stereo not drawn)	3	-1
CCc1cc(CN(C)C(=O)c2cnc(-c3cccnc3)nc2)on1	-2	-4
COc1ccc2c(=O)c(Oc3ccc(C(=O)Nc4ncc([N+](=O)[O-])s4)cc3)c(C)oc2c1	-4	-5
CN(C)S(=O)(=O)c1ccc(Cl)c(NS(=O)(=O)c2ccc3ccccc3c2)c1	6	2
Cc1nc(-c2ccc(C(F)(F)F)cc2)nc(N2CCN(C(=O)C(C)Cl)CC2)c1C(C)C (stereo not drawn)	15	16
O=C(C1=C(O)C(=O)N(CCN2CCOCC2)C1c1ccco1)c1ccco1 (stereo not drawn)	11	4
COc1ccc(S(=O)(=O)NC2CC2)cc1NC(=O)C1=Cc2ccccc2OC1	0	-4
COCc1cc(C)nc(OCC(=O)N/N=C\c2cccnc2)c1C#N	-2	-9
CC(NC(=O)C1CCN(CCOc2ccc(Cl)cc2)CC1)c1ccc(F)cc1 (stereo not drawn)	4	0
COc1ccc(C(=O)N2CCN(C(C(=O)NCCCN3CCOCC3)C3CCCC3)CC2)cc1OC (stereo not drawn)	0	6
Cn1c(CNC(=O)c2ccc3oc(Cc4ccc(Cl)cc4)nc3c2)nc2ccccc21	5	0
C#CCOCC(O)CN(Cc1ccco1)Cc1ccccc1OC (stereo not drawn)	-7	2
CCOC(=O)c1c(NC(=O)CSc2nc3ccccc3s2)sc2c1CCCC2	-4	-6
CN(Cc1cccc(C#N)c1)Cc1cc2c(cc1O)OCO2	-1	-1
COC(=O)c1c(N)sc2c1CCC2	-9	-16
Cn1cnnc1Sc1ccc(S(=O)(=O)N2CCOCC2)cc1[N+](=O)[O-]	1	6
COc1ccnc(C(=O)NC(C)CN(C)C(=O)c2cc(OC)ccn2)c1 (stereo not drawn)	-6	-6
CC1(C)O[C@@H]2C[C@@](OCc3ccccc3F)(C(=O)NCC3CCCO3)CC(OCc3cccc(OC(F)(F)F)c3)[C@@H]2O1 (stereo partly drawn)	5	13
COc1ccc(-c2[nH]ncc2CNCCc2ccc(Cl)cc2)cc1F	-2	-5
O=C(/C=C/c1ccccn1)N(CC1CCN(C2Cc3ccccc3C2)CC1)CC1CCCO1 (stereo not drawn)	-12	-15
COc1ccc(-c2cn3c(n2)SCC3)cc1	2	16
Cc1cccn2c(=O)nc(SCC(=O)NCc3ccccc3Cl)nc12	4	0
CCOC(=O)c1ccc(-c2n[nH]c(=O)c3ccccc23)cc1	6	2
Cc1ccc(C(=O)OCc2cc(=O)n3[nH]ccc3n2)c(C)c1	7	3

Continuation.
SMILES	NPYLR7 agonist	NPYLR7 agonist max-min
Cc1ccc(C2(O)CCN(C(=O)CCn3nnc4ccccc43)CC2)nc1	11	6
CCCN(C(=O)c1cccs1)C1CCN(C(=O)c2ccc(COC)cc2)CC1	5	4
COC(=O)c1ccc(CN2CCN(Cc3ccc(OC)c(C)c3)C(CCO)C2)cc1 (stereo not drawn)	-7	-9
Cc1ccc(N2CCN(c3cc(Oc4ccccc4C)ncn3)CC2)cc1	6	10
Cc1ccc(OCC2CN(C(=O)c3ccccc3C#N)CCO2)cc1 (stereo not drawn)	-3	-8
CCOC(=O)CCC(=O)N(CC(=O)Nc1cc(C(C)(C)C)nn1-c1ccc(Cl)c(Cl)c1)Cc1ccco1	0	6
CN(C)c1ccc(NC(=O)C2CCC2)cc1CN(C(=O)C1CC1)C1CCCCC1	1	3
CC(C)NC(=O)NC1CCN(c2ccccc2C(=O)N2CCN(c3ccccn3)CC2)CC1	1	13
COc1ccccc1N1C(=O)CC(Nc2ccc(N3CCOCC3)cc2)C1=O (stereo not drawn)	-9	-15
CC(C)C(OC(=O)c1ccn[nH]1)C(=O)N1CCc2ccccc2C1 (stereo not drawn)	4	1
COc1ccc(OC)c(-c2cnc(-c3ccc(CNC(=O)COc4ccccc4)cc3)[nH]2)c1	6	8
Cc1cccc(OCCn2c(SCc3nc4ccccc4[nH]3)nc3ccccc32)c1	-2	4
O=C(O)c1coc(CN(Cc2cccc(F)c2)Cc2cccc(C(F)(F)F)c2)n1	-3	6
Cc1noc(C)c1CN(C)Cn1ccc(-c2ccccc2)n1	2	2
CC1(C(=O)NCc2cccc3ccccc23)CCN1CCc1ccccc1 (stereo not drawn)	10	3
CCc1ccc(S(=O)(=O)Nc2ccc(-c3cn4nc(OC)ccc4n3)cc2)s1	-6	-9
CC1C(=O)N(c2ccc3c(c2)CCC3)CCN1C(=O)c1ccc(Cl)c(Cl)c1 (stereo not drawn)	-2	2
c1ccc(-c2ncn(CCc3cnc[nH]3)c2-c2ccncc2)cc1	7	0
CCOc1ccc2nc(N3CCCC3C(=O)N3CCCOc4c(cccc4OC)C3)nc(C)c2c1 (stereo not drawn)	-2	-9
CCOC(=O)c1cc(-c2cccc(NC(=O)c3cc(C)oc3C(F)(F)F)c2)n(-c2cccc(C)c2)n1	22	12

Copied from the listing for reference:
SMILES	NPYLR7 agonist	NPYLR7 agonist max-min
CCOc1ccc2nc(N3CCCC3C(=O)N3CCCOc4c(cccc4OC)C3)nc(C)c2c1 (stereo not drawn)	-2	-9
CCOC(=O)c1cc(-c2cccc(NC(=O)c3cc(C)oc3C(F)(F)F)c2)n(-c2cccc(C)c2)n1	22	12

Returning to the listing, repeating the 7 entries before the break.
SMILES	NPYLR7 agonist	NPYLR7 agonist max-min
Cc1noc(C)c1CN(C)Cn1ccc(-c2ccccc2)n1	2	2
CC1(C(=O)NCc2cccc3ccccc23)CCN1CCc1ccccc1 (stereo not drawn)	10	3
CCc1ccc(S(=O)(=O)Nc2ccc(-c3cn4nc(OC)ccc4n3)cc2)s1	-6	-9
CC1C(=O)N(c2ccc3c(c2)CCC3)CCN1C(=O)c1ccc(Cl)c(Cl)c1 (stereo not drawn)	-2	2
c1ccc(-c2ncn(CCc3cnc[nH]3)c2-c2ccncc2)cc1	7	0
CCOc1ccc2nc(N3CCCC3C(=O)N3CCCOc4c(cccc4OC)C3)nc(C)c2c1 (stereo not drawn)	-2	-9
CCOC(=O)c1cc(-c2cccc(NC(=O)c3cc(C)oc3C(F)(F)F)c2)n(-c2cccc(C)c2)n1	22	12
COc1ccc(-c2noc(CN3CCC(C(N)=O)(N4CCCCC4)CC3)n2)cc1	4	5
CC(=O)N1CCc2c(sc(NC(=O)C3CCCCC3)c2-c2nc3ccccc3s2)C1	1	-2
Cc1cc(C)cc(-c2nc3cc(C)ccn3c2NC(=O)CCl)c1	-10	-2
CCOC(=O)C1(Cc2ccc(OC)cc2)CCN(C(=O)c2oc(C)cc2C)CC1	4&9	-1&10

Reprinted at random: two compounds from above.
SMILES	NPYLR7 agonist	NPYLR7 agonist max-min
COc1ccc(-c2noc(CN3CCC(C(N)=O)(N4CCCCC4)CC3)n2)cc1	4	5
Cc1cc(C)cc(-c2nc3cc(C)ccn3c2NC(=O)CCl)c1	-10	-2

Compound activity (PubChem)
